# FGF22 binding: shifts melting point of recombinant human FGF22. Q9HCT0. recombinant FGF22 thermal shift, SYPRO orange fluorescence; percent of sucrose octasulfate shift, DMSO zero. calls only at 9.99 µM. 1.5% of 340,000 active;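 active = melting point raised past a set limit in the mean and every replicate; inconclusive = no clear call; three in four hits are not shown here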
# Target sequence (Q9HCT0 whole entry, looked up): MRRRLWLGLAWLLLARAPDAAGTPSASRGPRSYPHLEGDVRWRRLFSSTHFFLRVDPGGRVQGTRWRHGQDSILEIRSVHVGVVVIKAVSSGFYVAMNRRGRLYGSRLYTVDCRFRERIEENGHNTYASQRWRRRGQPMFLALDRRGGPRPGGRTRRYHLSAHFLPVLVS
# T cruzi repl: blocks replication of Trypanosoma cruzi; 1.4% of 300,000 active; T. cruzi beta-gal in NIH3T3, luminescence, 90 h; inhibition, % (no concentration beside the values);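 active = mean inhibition across valid replicates above about 55%, limit read from the data; inconclusive = mean below that limit but half or more replicates reach it; inactive = mean below it, under half of replicates reach it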;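 note: signal also drops with host cell toxicity which is not excluded here; 0% = plate median of DMSO wells and 100% = zero luminescence signal; higher percent means less beta-gal luminescence so fewer parasites; stock transfer was 50 nL into about 50 µL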
# AF4-AF9 inh: blocks AF4 peptide binding to human AF9; P42568; AlphaScreen, biotin-AF4 peptide binding to FLAG-AF9; inhibition, % at 10 µM; 0.47% of 350,000 active; AID 651704;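 active = every replicate reaching a set inhibition limit, whatever the replicate mean, cut at about 25% in these data; inconclusive = mean inhibition reaches that limit but some replicates miss it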;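 note: 0% = plate neutral control median and 100% = total signal loss; the record names both 10 and 1 µM as test concentration; the first replicate is given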
# Target sequence (P42568 whole entry, looked up): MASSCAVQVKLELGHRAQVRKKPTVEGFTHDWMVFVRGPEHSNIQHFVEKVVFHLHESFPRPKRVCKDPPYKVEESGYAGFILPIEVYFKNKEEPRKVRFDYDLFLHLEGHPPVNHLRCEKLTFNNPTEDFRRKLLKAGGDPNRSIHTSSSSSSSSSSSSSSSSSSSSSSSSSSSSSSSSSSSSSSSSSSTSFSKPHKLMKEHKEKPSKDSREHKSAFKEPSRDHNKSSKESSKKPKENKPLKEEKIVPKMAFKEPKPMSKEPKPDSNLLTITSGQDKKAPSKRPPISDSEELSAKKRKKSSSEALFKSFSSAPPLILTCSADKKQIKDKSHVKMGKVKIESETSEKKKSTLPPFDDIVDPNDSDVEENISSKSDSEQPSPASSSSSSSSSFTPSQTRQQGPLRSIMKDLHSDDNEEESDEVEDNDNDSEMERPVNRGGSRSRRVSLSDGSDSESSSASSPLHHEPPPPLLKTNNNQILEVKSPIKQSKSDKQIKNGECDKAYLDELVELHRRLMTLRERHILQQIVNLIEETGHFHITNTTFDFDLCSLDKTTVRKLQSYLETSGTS
# Bfl-1 A1 inh: inhibitors of the anti-apoptotic protein A1, read as caspase activation; MEF A1-2A-BIM cells, Caspase-Glo 3/7 luminescence, 3 h; percent of clofoctol response, vehicle zero; 0.066% of 330,000 active; caspase activation, % (no concentration beside the values); AID 2462;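 active = over half of replicate activation scores above 10%, or exactly half above 10 with the replicate mean above 10; inconclusive = replicate mean below 10 yet half the replicates above 10; inactive = over half of replicates below 10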;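 note: wells of about 30 µL received 50 nL stock; many hits fall short of the cut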
# UCH37 inh: inhibitors of human deubiquitinating enzyme UCH37; 0.33% of 330,000 active; purified proteasome/UCH37, Ub-AMC cleavage fluorescence; AID 588478; inhibition, % (no concentration beside the values);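 active = mean of two replicates above 20%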;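 note: 0% = compound-free wells with enzyme and 100% = wells lacking proteasome; stock transfer was 100 nL into about 20 µL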
# Target sequence (Q9Y5K5 whole entry, looked up): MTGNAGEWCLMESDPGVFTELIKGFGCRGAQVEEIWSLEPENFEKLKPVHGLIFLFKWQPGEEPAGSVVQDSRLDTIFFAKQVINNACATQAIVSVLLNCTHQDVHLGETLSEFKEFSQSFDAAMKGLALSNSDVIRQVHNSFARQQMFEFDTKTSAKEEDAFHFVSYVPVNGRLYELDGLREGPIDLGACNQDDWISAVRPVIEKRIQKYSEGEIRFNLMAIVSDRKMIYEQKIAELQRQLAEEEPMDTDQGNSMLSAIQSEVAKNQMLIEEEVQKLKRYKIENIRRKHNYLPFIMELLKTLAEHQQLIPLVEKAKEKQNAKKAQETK
#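 system = Proteasome-associated human UCH37 deubiquitinase | amount = 0.15 nM proteasome as dispensed | medium = pH 7.4 Tris-HCl (50 mM) with ovalbumin, ATP-MgCl2, DTT | incubation = 30 min preincubation with enzyme, 25 min cleavage at room temperature | detection = AMC fluorescence 355/460 nm | read-out basis = percent inhibition | controls = no-proteasome and no-compound wells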
# Beta cell apopt: blocks beta cell apoptosis | INS-1E cytokine-induced death, ATP luminescence, 48 h; percent of positive-control rescue, neutral wells zero | 0.8% of 300,000 active | protection from apoptosis, % (test concentration not listed) | AID 435005;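 active = all replicates at 75% or more, or half of them and the mean; inconclusive = half reach 75% but not the mean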;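 note: 0% = cytokine-treated negative control wells and 100% = positive control rescue; higher means more ATP so stronger rescue from cytokine killing; wells of about 40 µL received 100 nL stock; the first replicate is given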
# rRNA inh HTS: selective bacterial rRNA inhibition in E. coli. GFP signal change (wild-type ribosome), % (test concentration not listed). 1.6% of 350,000 active. E. coli WT GFP vs humanized-ribosome RFP mutants, fluorescence, 24 h; stronger effect = lower value; DMSO median 0, no signal -100. AID 720706;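 active = significant combined selectivity score with lowered wild-type GFP, culture density cut under 30%, mutant RFP and density less affected; inactive = any of these conditions unmet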; note: one replicate is shown; some compounds called inactive have numbers as strong as hits
# E coli growth: inhibitors of Escherichia coli growth. OD600, 23 h; stronger effect = lower value. OD600 absorbance (test concentration not listed). 0.21% of 330,000 active. AID 1053175;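 active = OD600 absorbance below the run mean of sample wells minus 3.6 SD, in any replicate, cut at about 0.56 in these data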;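 note: stock transfer was 300 nL into about 60 µL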
# rRNA inh HTS OD600: recorded beside rRNA inh HTS, whose call it bears; OD600 change, %; measured here: OD600 growth;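 optical density of the mix in the first replicate; 0 = DMSO median and -100 = no signal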
# rRNA inh HTS RFP: second read-out of rRNA inh HTS, no call of its own (marks repeat the call); RFP signal change, %; measured here: RFP humanized mutant strains;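 first replicate; 0 = DMSO median and -100 = no signal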
# * = called active by the depositor; i = inactive; ? = inconclusive; . = no result given; & = joins results of further samples.
# Second line of a record: E coli growth, rRNA inh HTS, rRNA inh HTS OD600, Beta cell apopt, UCH37 inh, FGF22 binding, T cruzi repl, Bfl-1 A1 inh, AF4-AF9 inh, rRNA inh HTS RFP
Cc1ccc2cccc(S(=O)(=O)N3CCN(c4cccc(Cl)c4)CC3)c2n1
  0.691, -9.6, -7.4, -2.2, 3.4, i, 15.7, 1.7, 0.9, 0.4
O=C(Cn1cc(C(F)(F)F)ccc1=O)N/N=C/c1cccc(Cl)c1Cl
  ., 22.4, 18.9, 7.5, ., i, 6.5, 0.5, -1.4, -4.0
CCCCC(C(=O)NC1CCCC1)N(Cc1ccco1)C(=O)Cn1nnc(-c2ccc(F)cc2)n1 (centres undefined)
  0.721, ., ., -6.9, 0.8, ., 20.1, 0.0, ., .
Nc1ncnc2nc(SCCOc3ccc(Cl)cc3)[nH]c12
  ., ., ., 6.8, ., i, -4.0, 0.1, 0.6, .
O=C(N/N=C/c1cccc2cccnc12)c1ccccc1O
  ., 10.5, 2.2, 46.8, ., i, 15.5, 0.3, -19.8, -6.7
CN(C)C(=O)CCc1ccc2c3c([nH]c2c1)[C@]1(C)[C@@H](C(=O)N2CCOCC2)C[C@H](CC(=O)NCCc2ccccn2)C(=O)N1CC3
  0.711, 8.6, 6.4, ., -1.7, i, ., ., -1.2, 0.3
COc1ccc(NC(=O)Cc2c[nH]c3ccccc23)cc1S(=O)(=O)N1CCCCC1
  0.66, ., ., -3.5, 0.6, ., 6.4, -0.2, ., .
CC(C)n1nc(C(=O)Oc2cc(Cl)ccc2Cl)c2ccccc2c1=O
  0.542, ., ., -4.5, 2.8, ., -26.6, -0.2, ., .
Cc1cccc(C)c1N=Cc1c(O)n(-c2nccs2)c(=O)c2ccccc12
  0.713, ., ., 2.9, 5.7, ., 17.7, 0.1, ., .
CCOc1ccc(/C=N/NC(=O)c2csc(C)c2C)c(OCC)c1
  ., 15.1, 12.7, -3.4, ., i, 0.2, 0.6, -5.1, 9.1
CC(=O)N1CCN(c2ccc(NC(=O)c3cccc(C)c3)cc2)CC1
  0.631, 0.4, 2.0, ., 0.8, i, 17.4, -0.4, 3.4, -0.8
CCc1noc(C)c1C(=O)N(C)CC(=O)Nc1ccc(Br)cc1C
  0.631, 5.3, 8.1, ., 1.5, i, 11.1, 0.3, 0.8, 2.0
CCOC(=O)CSC1=C(C#N)C(c2ccccc2C)C2=C(CCCC2=O)N1 (centres undefined)
  0.777, ., ., -3.0, -10.9, ., 21.5, 0.4, ., .
CC(C)Sc1nnc([C@@H]2CCCN2C(=O)OC(C)(C)C)o1
  0.729, ., ., -5.3, 0.0, ., 2.0, 0.8, ., .
Cc1cc(C(=O)N2CCN(S(=O)(=O)c3ccc(F)c(Cl)c3)CC2)c(C)o1
  0.685, ., ., 2.1, 0.0, i, ., -0.5, 3.0, .
CCc1nnc(NC(=O)c2ccc(F)c(S(=O)(=O)N3CCCCC3)c2)s1
  0.636, -3.1, 7.8, ., 0.1, i, 3.5, ., -2.7, -2.9
COc1ccc(C)cc1S(=O)(=O)NC1CCCCCC1
  0.732, -1.3, -0.3, ., 0.8, i, 15.2, 1.8, 0.8, 0.0
Cc1ccc(C)c(S(=O)(=O)N2CCCOC2CNC(=O)C(=O)NCc2cccs2)c1 (centres undefined)
  0.722, 6.4, -0.2, -1.1, -0.6, i, -3.6, 1.3, -1.7, -0.1
O=C(Cn1cnc2c(oc3ccccc32)c1=O)N1CCN(c2ccccc2)CC1
  0.705, ., ., -1.2, -1.0, ., 1.0, -0.2, ., .
CC(C)Cc1nc2sc3c(c2c(=O)n1N)CC(C(C)C)OC3 (centres undefined)
  0.705, 5.0, 1.8, -4.8, -2.1, i, 33.4, -1.1, -9.2, -8.0
Cc1nn2c3ccccc3n(Cc3ccccc3)c2nc1=O
  0.746, ., ., 7.7, -58.3, ., 12.7, 0.7, ., .
N#Cc1c(N2CCCC2)ccc(Br)c1Cl
  0.629, 6.1, -1.7, 3.2, 2.0, i, -5.4, -0.3, -1.3, 3.8
COc1ccc(/C=C2/S/C(=N/S(=O)(=O)Cc3ccccc3)NC2=O)cc1OC
  0.687, -12.0, -15.8, 6.2, 5.8, i, 20.3, 0.1, -38.3, -4.1
CNC(=O)c1ccc(=O)n(Cc2cccc(C(F)(F)F)c2)c1
  0.665, 8.3, 4.8, -2.1, 1.3, i, -13.6, -0.3, -1.3, 1.5
Cc1c(C)c2cc(Cl)c(O)c(CN3CCCCC3)c2oc1=O
  0.707, ., ., -5.3, i, ., -15.4, 0.8, ., .
O=C1CN(C(=O)COC(=O)C23CC4CC(CC(O)(C4)C2)C3)c2ccccc2N1
  0.694, ., ., 0.8, 2.4, ., -1.9, -0.2, ., .
Cc1ccc(S(=O)(=O)N2CCC(C(=O)OCC(=O)N3CCC(C)CC3)CC2)cc1C
  0.675, 1.1, 1.7, -2.1, 1.9, i, -0.7, 0.7, -3.3, -0.5
Oc1[nH]c2ccccc2c1N=NC(=S)NCC1CCCO1 (centres undefined)
  0.646, -18.5, -15.7, 3.0, 9.3, i, -20.2, -0.3, 3.1, -19.3
CCc1nnc(NC(=O)Cc2c[nH]c3ccccc23)s1
  0.668, -7.0, -12.8, 5.2, 0.5, i, -7.3, 0.2, 2.1, -2.8
NC(=O)c1ccsc1NC(=O)CN1C(=O)NC2(CCCCC2)C1=O
  0.685, ., ., -5.8, 2.3, i, ., 0.0, -0.7, .
Cc1nnc(SCC(=O)c2c(N)n(C)c(=O)n(C)c2=O)[nH]c1=O
  0.739, ., ., -1.2, 1.4, ., -10.9, -0.3, ., .
CCn1c(SCC(=O)NC2CCCCC2C)nnc1-c1ccc(OC)cc1 (centres undefined)
  0.697, ., ., -1.7, 5.4, ., -0.7, 0.6, ., .
Cc1ccc(S(=O)(=O)NCC(=O)N(CC(=O)NC(C)(C)C)Cc2ccc3c(c2)OCO3)cc1
  0.679, 8.0, 16.2, 2.0, 0.4, i, 10.3, 0.2, -2.0, 4.7
COc1ccc(C2CC(c3cccc(Br)c3)=NN2c2ccc(S(N)(=O)=O)cc2)cc1 (centres undefined)
  0.697, 10.9, 19.8, ., i, i, ., ., -22.9, -1.7
CC(=O)N(c1ccc(Cl)cc1)c1nc(C)cc(C)c1C#N
  0.713, 8.2, 9.9, 2.3, -2.2, ., -11.5, 0.3, -1.6, 0.0
Cc1nc2ncnn2c(C)c1CCC(=O)O
  0.729, ., ., 2.5, -3.1, ., -2.5, 0.9, ., .
CCOc1ccccc1NC(=O)CN1CCC(NC(=O)c2ccccc2C)CC1
  0.699, -9.0, -6.9, 10.5, 1.4, i, 10.6, -0.2, -5.6, 0.0
Cc1cc(NS(=O)(=O)c2ccc(NC(=O)COc3c(C)cc(Br)cc3C)cc2)no1
  0.691, -47.6, -76.5, -2.2, 5.5, i, 6.8, 0.7, -1.5, -16.0
Cc1ccc(C(C[N+](=O)[O-])c2c(C)[nH]n(-c3ccccc3)c2=O)cc1 (centres undefined)
  0.566, 0.9, 4.1, 1.9, 52.5*, i, -6.8, 3.7, -0.5, -7.1
CN(C)C(=O)COn1c(SCC(=O)N(C)C)nc2ccccc2c1=O
  0.655, ., ., 1.9, 2.5, ., -9.0, -0.3, ., .
O=C(Nc1cccc2ncccc12)c1ccco1
  0.708, 2.4, -1.3, -1.1, 3.6, i, -6.9, -0.4, -7.5, 0.2
CC(C)(C)c1cc(NC(=O)c2cccc(S(=O)(=O)N3CCOCC3)c2)no1
  0.735, ., ., -1.6, 5.8, ., -5.5, -0.3, ., .
CC(C#N)On1c(SC(C)C#N)nc2ccccc2c1=O (centres undefined)
  0.67, ., ., -7.5, 4.1, ., -6.8, 1.2, ., .
COc1cccc(N(CC(=O)NCc2ccco2)C(=O)CCC(=O)Nc2nccs2)c1
  0.711, 5.7, 3.8, -2.0, 1.3, i, 2.6, ?, -2.0, 0.4
Nc1ccc(S(=O)(=O)c2ccc(N)cc2)cc1
  0.657, ., ., -10.0, 2.2, i, -6.6, 1.3, -1.9&0.2, .
O=C(N/N=C/c1cn(CC(=O)N2CCOCC2)c2ccccc12)c1cccnc1
  ., 13.8, 9.3, ., ., i, -1.8, -0.5, -5.1, 0.6
CC(/C=N/NC(=O)NC1CCCCC1)=C\c1ccccc1
  ., -34.0, -44.8, -9.6, ., i, 24.1, -0.1, 3.5, -6.0
CCC(=O)N1CCc2cc(Br)cc(S(=O)(=O)N3CCCCC3CC)c21 (centres undefined)
  0.681, 3.5, 8.3, -4.3, 3.7, i, 12.7, -0.4, 0.2, -1.2
CCC(=O)Nc1cccc(-c2cn3ccsc3n2)c1
  0.74, ., ., -1.8, 1.3, ., -4.2, 0.6, ., .
CC(=O)Nc1ccc(S(=O)(=O)NCC(C)NS(=O)(=O)c2ccc(NC(C)=O)cc2)cc1 (centres undefined)
  0.711, ., ., -3.9, 2.6, ., -8.4, 0.4, ., .
CCOC(=O)N1CCN(C(=O)CSCC(=O)Nc2nc(-c3ccc(C)cc3)cs2)CC1
  0.664, 3.3, -4.1, 2.7, 5.4, i, 4.0, 0.0, -11.2, -7.9
CCOc1ccc(/C=C2\CCC(C3CCCC3)C2=O)cc1OC (centres undefined)
  0.629, 3.9, 14.2, -4.5, 2.5, i, 14.7, 0.4, 2.4, 1.8
CS(=O)(=O)N1CCc2cc(C(=O)N3CCCCC3)ccc21
  0.71, ., ., ., 1.9, ., -10.8, 0.6, ., .
CC(=O)Nc1ccc(S(=O)(=O)NC2Cc3ccccc3C2)cc1
  0.686, -5.5, -12.9, 0.8, 3.0, i, -1.5, -0.1, -2.6, 0.1
COCCCNC(=O)c1cc(Sc2nnc(C)s2)nc2ccccc12
  0.679, 6.5, 3.5, 2.0, -0.3, i, -0.9, 0.3, 1.9, 5.8
COc1ccc(OC)c(Cc2nnc(CCC(=O)N3CCCCC3c3nccs3)o2)c1 (centres undefined)
  0.686, -2.3, 1.0, -0.6, 6.7, i, 2.1, 1.4, 12.5, 0.1
CCCCC1=CC2=C(c3ccco3)C(=O)C(C)(OC(=O)c3ccc(OC)cc3)C(=O)C2=CN1C1CCCCC1 (centres undefined)
  0.711, 4.7, 12.9, -9.5, -0.4, ., 10.1, -0.6, ., 6.2
COc1cc(/C=C(\C#N)C(=O)NCC2CCCO2)cc(OC)c1OC (centres undefined)
  0.707, 7.7, -3.9, -3.6, 1.7, i, -6.0, 0.1, -0.5, 0.0
COc1ccccc1CNS(=O)(=O)c1ccc(-n2cccn2)cc1
  0.674, -1.9, -11.2, 5.9, 4.1, i, 5.4, 0.6, -2.4, -1.2
C=CCn1c(SCC(=O)N2CCCCC2)nnc1-c1ccncc1
  0.734, 18.1, 10.4, -3.6, -1.9, i, -13.6, -0.2, -2.8, -4.0
COc1ccc(OC)c(CN2CCN(C(=O)c3ccc(F)cc3)CC2)c1
  0.65, 12.1, 5.5, 1.2, -1.1, i, -3.5, 0.6, -2.0, -3.0
COc1ccc(C2=NOC(c3nnc(-c4ccccc4)o3)C2)cc1 (centres undefined)
  0.685, -0.4, -4.8, -3.7, 3.5, i, 0.3, 0.8, -3.0, -1.2

# High-throughput results: PubChem, several laboratories

# A portion of the library, so the mix of outcomes need not match the whole.
